Compound activity deposited in PubChem by Broad Institute.
UUG fidelity – modulators of yeast start codon fidelity, primary screen, whole organism, S. cerevisiae, single point, plate reader; 0.13% of 350,000 active; activity score, % at 18.7 µM; AID 602363, 2012; S. cerevisiae UUG-firefly luciferase reporter, luminescence/redox ratio;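 active = replicate mean at a twofold rise or more, about +100% in these data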;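 note: firefly luciferase made from a UUG start codon reports start codon fidelity; reporter light over untreated wells divided by growth signal over untreated wells; some hits fall short of that in this replicate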
* marks the source's active call; other numbers are inactive results. Not all compounds are listed (hit frequency here may not be typical).

SMILES	UUG fidelity
C[C@@H](NC(=O)C[C@@H]1C[C@@H]2c3cc(NC(=O)CC4CC4)ccc3O[C@@H]2[C@H](CO)O1)c1ccccc1	-7
CCCNC(=O)C[C@@H]1CC[C@H]2[C@@H](COc3ccc(NC(=O)c4cccs4)cc3C(=O)N2C)O1	5
OC[C@H]1N[C@@H](CNCC2CCC2)[C@@H]1c1ccc(C2=CCCC2)cc1	-17
COCC(=O)N1C[C@H](C)[C@H](OC)CN(C)C(=O)c2cc(NC(=O)c3ccccc3)ccc2OC[C@@H]1C	3
CCCC(=O)Nc1ccc2c(c1)C(=O)N(C)[C@@H]1CC[C@@H](CC(=O)NCC3CC3)O[C@H]1CO2	14
CC(C)CC#Cc1ccc([C@@H]2[C@H](CO)N3CCCCN(C(=O)Nc4ccccc4)C[C@@H]23)cc1	20
C[C@@H]1CN([C@H](C)CO)C(=O)c2cc(NC(=O)Cn3cnnn3)ccc2O[C@@H]1CN(C)Cc1ccc2c(c1)OCO2	-5
C[C@@H]1CN([C@@H](C)CO)C(=O)c2cc(NS(=O)(=O)c3cccs3)ccc2O[C@H]1CN(C)Cc1ccc(Oc2ccccc2)cc1	16
O=C(C[C@@H]1CC[C@@H]2[C@H](COC[C@@H](O)CN2S(=O)(=O)c2ccccc2)O1)Nc1ccc(-c2ccccc2)cc1	-5
C[C@@H]1CN([C@H](C)CO)C(=O)c2cc(NC(=O)CCC(F)(F)F)ccc2O[C@H]1CN(C)Cc1ccc(C(=O)O)cc1	-20
Cc1noc(C)c1S(=O)(=O)N(C)C[C@@H]1Oc2ccc(NS(=O)(=O)c3cccs3)cc2C(=O)N([C@@H](C)CO)C[C@@H]1C	2
COc1cccc(S(=O)(=O)N2C[C@@H](O)COC[C@@H]3O[C@@H](CC(=O)N4CCOCC4)CC[C@H]32)c1	0
CO[C@H]1CN(C)C(=O)c2cc(NS(=O)(=O)c3cccc(F)c3)ccc2OC[C@H](C)N(Cc2cc(F)ccc2F)C[C@H]1C	18
Cc1cccc(-c2ccc([C@H]3[C@@H](CO)N4CCCCN(S(=O)(=O)c5ccccc5F)C[C@@H]34)cc2)c1	-2
CC(=O)N1CC[C@@H]2[C@H]1c1cc(-c3ccc(C#N)cc3)ccc1N(C)[C@@H]2CO	-12
O=C(O)C[C@H]1C[C@H]2c3cc(NC(=O)Nc4ccc(F)cc4)ccc3O[C@H]2[C@@H](CO)O1	-13
CN1c2ccc(C#Cc3cccnc3)cc2[C@@H]2[C@@H](CCN2S(=O)(=O)c2cccc(F)c2)[C@@H]1CO	-6
N#Cc1ccc(-c2ccc3c(c2)[C@H]2[C@H](CCN2C(=O)C2CC2)[C@@H](CO)N3)cc1	19
Cc1ccc(S(=O)(=O)N2C[C@@H](O)COC[C@@H]3O[C@@H](CC(=O)N[C@H]4CCN(Cc5ccccc5)C4)CC[C@H]32)cc1	19
CO[C@H]1CN(C)C(=O)c2cc(NC(=O)c3ccccc3)ccc2OC[C@H](C)N(C(C)=O)C[C@H]1C	2

Quoted from the listing:
`CCCNC(=O)C[C@@H]1CC[C@H]2[C@@H](COc3ccc(NC(=O)c4cccs4)cc3C(=O)N2C)O1` @ UUG fidelity: 5
`CO[C@H]1CN(C)C(=O)c2cc(NC(=O)c3ccccc3)ccc2OC[C@H](C)N(C(C)=O)C[C@H]1C` @ UUG fidelity: 2

Going on with the list.
SMILES	UUG fidelity
C[C@H]1CN([C@@H](C)CO)C(=O)c2cccc(N(C)C)c2O[C@H]1CN(C)C(=O)Nc1ccc(F)cc1	0
C[C@H](CO)N1C[C@H](C)[C@@H](CN(C)Cc2ccc(C(=O)Nc3ccccc3N)cc2)Oc2c(NC(=O)c3cnccn3)cccc2C1=O	-4
Cc1cccc(-c2ccc([C@@H]3[C@H](CO)N4CCCCN(C(=O)NC(C)C)C[C@@H]34)cc2)c1	-5
COc1ccc(NC(=O)Nc2cccc3c2O[C@H](CN(C)C(=O)Nc2ccc(F)cc2)[C@@H](C)CN([C@H](C)CO)C3=O)cc1	12
Cc1noc(C)c1S(=O)(=O)Nc1cccc2c1O[C@H](CN(C)Cc1ccc(Cl)c(Cl)c1)[C@H](C)CN([C@@H](C)CO)C2=O	4
COCC(=O)N1C[C@@H]2[C@H](c3ccccc31)[C@H](CO)N2C(=O)c1ccccc1F	7
COc1ccc(S(=O)(=O)N2CC[C@@H]3[C@H]2c2cc(C#Cc4cccnc4)ccc2N[C@@H]3CO)cc1	4
C[C@@H]1CN([C@@H](C)CO)C(=O)Cc2cc(NC(=O)Cn3cnnn3)ccc2O[C@@H]1CN(C)Cc1ccncc1	-18
Cc1ccc(S(=O)(=O)N2CC[C@H]3[C@@H](CO)N(C)c4ccc(C#Cc5cccnc5)cc4[C@H]32)cc1	-20
C[C@H](CO)N1C[C@H](C)[C@H](CN(C)S(C)(=O)=O)Oc2ccc(NS(=O)(=O)c3ccccc3)cc2C1=O	7
COc1ccc(CN(C)C[C@H]2Oc3c(NC(=O)C4CCOCC4)cccc3C(=O)N([C@@H](C)CO)C[C@@H]2C)cc1	1
CC(C)NC(=O)N(C)C[C@@H]1Oc2ccc(NC(=O)Nc3ccc(F)cc3)cc2C(=O)N([C@H](C)CO)C[C@H]1C	-4
O=C(C[C@H]1CC[C@H]2[C@@H](COC[C@@H](O)CN2Cc2cccc(-c3ccncc3)c2)O1)N1CCCCC1	-4
CCCNC(=O)[C@@H]1N[C@@H]2c3ccc(C4=CCCCC4)c(=O)n3C[C@@H]2[C@H]1CO	6
CN(C)C(=O)c1ccc(-c2ccc([C@H]3[C@@H](CO)N4CCCCN(C(=O)C5CC5)C[C@@H]34)cc2)cc1	-2
C[C@@H]1CN([C@H](C)CO)C(=O)c2cccc(NS(=O)(=O)c3cccs3)c2O[C@H]1CN(C)Cc1ccc(-c2ccccc2)cc1	-16
C[C@@H]1CN([C@H](C)CO)C(=O)c2cccc(NS(=O)(=O)c3ccc(Cl)cc3)c2O[C@@H]1CN(C)Cc1ccc(Oc2ccccc2)cc1	-2
CCCNC(=O)N1C[C@@H](C)[C@@H](OC)CN(C)C(=O)c2cc(NC(C)=O)ccc2OC[C@@H]1C	-8
O=C(C[C@H]1CC[C@H]2[C@@H](COC[C@@H](O)CN2C(=O)c2ccccc2)O1)N1CCc2ccccc2C1	28
CO[C@@H]1CN(C)C(=O)c2ccc(NS(=O)(=O)CC(F)(F)F)cc2OC[C@@H](C)N(CCC(F)(F)F)C[C@H]1C	10
C[C@H](CO)N1C[C@H](C)[C@@H](CN(C)CC2CCCC2)OCc2cnnn2CCCC1=O	9
CCCC#Cc1ccc([C@@H]2[C@H]3CN(S(C)(=O)=O)CCCCN3[C@H]2CO)cc1	9
CCNC(=O)C[C@@H]1CC[C@H]2[C@@H](COC[C@@H](O)CN2Cc2ccccc2F)O1	14
O=S(=O)(c1ccc(F)cc1)N1CCCCN2[C@H](C1)[C@H](c1ccc(-c3cncnc3)cc1)[C@@H]2CO	-3
CO[C@H]1CN(C)C(=O)c2ccc(NC(C)=O)cc2OC[C@@H](C)N(C(=O)C2CC2)C[C@H]1C	4
CN1CCN(C(=O)C[C@H]2CC[C@H]3[C@@H](COC[C@@H](O)CN3C(=O)Nc3ccc(Cl)cc3)O2)CC1	6
O=C(NCCc1ccccc1)[C@@H]1[C@@H](CO)[C@@H]2Cn3c(cccc3=O)[C@H]1N2C(=O)C1CCCC1	0
N#Cc1ccc(-c2ccc([C@@H]3[C@H]4CN(C(=O)Nc5ccc(F)cc5)CCCCN4[C@H]3CO)cc2)cc1	11
CN(C[C@H]1[C@H](c2ccccc2)[C@@H](CO)N1CC1CC1)C(=O)c1ccc(F)cc1	-8
CO[C@@H]1CN(C)C(=O)c2ccc(NC(=O)C3CC3)cc2OC[C@@H](C)N(C(=O)CN2CCOCC2)C[C@H]1C	-10
COc1ccc(NC(=O)N2C[C@H](O)COC[C@@H]3O[C@@H](CC(=O)NCc4ccccc4OC)CC[C@H]32)cc1	10
CCCC(=O)Nc1ccc2c(c1)C(=O)N(C)C[C@H](OC)[C@@H](C)CN(C(=O)CN(C)C)[C@H](C)CO2	5
CC(=O)NC[C@H]1[C@@H](c2ccc(-c3cccnc3)cc2)[C@H](CO)N1C(=O)C1CC1	-6
C[C@H](CO)N1C[C@H](C)[C@@H](CN(C)CC2CC2)Oc2ccc(NS(=O)(=O)c3cccs3)cc2CC1=O	21
CN1[C@@H]2c3ccc(-c4ccccc4)c(=O)n3C[C@H]1[C@H](CO)[C@H]2C(=O)N1CCC(Cc2ccccc2)CC1	16
CN(C)CC(=O)Nc1ccc2c(c1)[C@@H]1C[C@H](CC(=O)NCc3cccnc3)O[C@@H](CO)[C@@H]1O2	-15
COc1ccc(NC(=O)COC(=O)CN2C(=O)C3CCCCC3C2=O)cc1OC (stereo unspecified)	-13
CCC(=O)Nc1ccc2c(c1)C(=O)N(C)C[C@@H](OC)[C@H](C)CN(Cc1cccnc1)[C@@H](C)CO2	-1
C[C@H]1CN([C@@H](C)CO)C(=O)c2cccc(NC(=O)C3CCOCC3)c2O[C@@H]1CN(C)S(=O)(=O)c1ccccc1	4
CO[C@H]1CN(C)C(=O)c2cc(NC(=O)Nc3cccc(Cl)c3)ccc2OC[C@H](C)N(C)C[C@H]1C	7

Four structures already listed, arranged by heavy-atom count, rising:
SMILES	UUG fidelity
CN(C[C@H]1[C@H](c2ccccc2)[C@@H](CO)N1CC1CC1)C(=O)c1ccc(F)cc1	-8
CO[C@H]1CN(C)C(=O)c2ccc(NC(C)=O)cc2OC[C@@H](C)N(C(=O)C2CC2)C[C@H]1C	4
O=C(NCCc1ccccc1)[C@@H]1[C@@H](CO)[C@@H]2Cn3c(cccc3=O)[C@H]1N2C(=O)C1CCCC1	0
CO[C@H]1CN(C)C(=O)c2cc(NC(=O)Nc3cccc(Cl)c3)ccc2OC[C@H](C)N(C)C[C@H]1C	7

Carrying on:
SMILES	UUG fidelity
CC(C)NC(=O)Nc1ccc2c(c1)CC(=O)N([C@@H](C)CO)C[C@@H](C)[C@@H](CN(C)S(=O)(=O)c1ccc(F)cc1)O2	7
COc1ccc(CN(C)C[C@@H]2Oc3ccc(NS(=O)(=O)c4ccc(F)cc4)cc3CC(=O)N([C@H](C)CO)C[C@@H]2C)cc1	5
CCNC(=O)[C@@H]1[C@@H](CO)[C@@H]2Cn3c(ccc(C4=CCCCC4)c3=O)[C@@H]2N1CC1CC1	14
Cc1noc(C)c1NC(=O)N(C)C[C@@H]1Oc2c(NC(=O)c3cnccn3)cccc2C(=O)N([C@@H](C)CO)C[C@@H]1C	15
CN(C)C(=O)C[C@@H]1C[C@H]2c3cc(NC(=O)Nc4ccc(C(F)(F)F)cc4)ccc3O[C@H]2[C@H](CO)O1	12
CO[C@H]1CN(C)C(=O)c2ccc(NC(=O)C3CCC3)cc2OC[C@@H](C)N(Cc2ccncc2)C[C@@H]1C	-7
CCCN1[C@@H]2c3ccc(C4=CCCCC4)c(=O)n3C[C@@H]2[C@@H](CO)[C@@H]1C(=O)OC	15
Cc1ccc(S(=O)(=O)Nc2ccc3c(c2)CC(=O)N([C@@H](C)CO)C[C@@H](C)[C@@H](CN(C)CC2CCCCC2)O3)cc1	-6
COCC(=O)Nc1ccc2c(c1)C(=O)N(C)C[C@H](OC)[C@@H](C)CN(C(=O)NC(C)C)[C@@H](C)CO2	-2
O=C(Nc1ccc2c(c1)[C@@H]1C[C@H](CC(=O)N3CCOCC3)O[C@H](CO)[C@@H]1O2)NC1CCCC1	6
C[C@@H]1CN([C@H](C)CO)C(=O)c2ccccc2-c2ccccc2CO[C@@H]1CN(C)S(=O)(=O)c1ccccc1	5
O=C(Nc1ccccc1F)N1CCCCN2[C@H](CO)[C@@H](c3ccc(C4=CCCCC4)cc3)[C@H]2C1	3
C[C@@H]1CN([C@@H](C)CO)C(=O)c2cc(NC(=O)C3CC3)ccc2O[C@@H]1CN(C)C(=O)Nc1ccc(C(F)(F)F)cc1	7
C[C@H](CO)N1C[C@H](C)[C@H](CN(C)C(=O)Nc2cccc3ccccc23)Oc2c(NS(=O)(=O)c3cn(C)cn3)cccc2C1=O	-1
C[C@@H]1CN([C@@H](C)CO)C(=O)c2cc(NS(=O)(=O)c3cccs3)ccc2O[C@@H]1CN(C)S(=O)(=O)c1ccc(Cl)cc1	2
O=C(Nc1ccccc1F)N1C[C@H]2[C@@H](c3ccccc31)[C@H](CO)N2C(=O)Cc1ccccc1	-7
COc1ccc(NC(=O)Nc2ccc3c(c2)CC(=O)N([C@H](C)CO)C[C@@H](C)[C@@H](CN(C)Cc2ccncc2)O3)cc1	-2
COC(=O)C[C@H]1CC[C@H]2[C@@H](COC[C@@H](O)CN2S(=O)(=O)c2ccccc2C)O1	7
CCC(=O)Nc1ccc2c(c1)OC[C@H](C)N(C(=O)CC1CC1)C[C@H](C)[C@H](OC)CN(C)C2=O	21
C[C@@H]1CN([C@@H](C)CO)C(=O)c2cccc(NS(=O)(=O)c3ccc(F)cc3)c2O[C@H]1CN(C)Cc1ccncc1	-14

3 entries drawn at random from the list so far:
SMILES	UUG fidelity
C[C@@H]1CN([C@@H](C)CO)C(=O)c2cccc(NS(=O)(=O)c3ccc(F)cc3)c2O[C@H]1CN(C)Cc1ccncc1	-14
C[C@@H]1CN([C@@H](C)CO)C(=O)c2cc(NS(=O)(=O)c3cccs3)ccc2O[C@@H]1CN(C)S(=O)(=O)c1ccc(Cl)cc1	2
O=C(Nc1ccc2c(c1)[C@@H]1C[C@H](CC(=O)N3CCOCC3)O[C@H](CO)[C@@H]1O2)NC1CCCC1	6

Next entries
SMILES	UUG fidelity
CCCC(=O)Nc1ccc2c(c1)C(=O)N(C)[C@H]1CC[C@H](CC(=O)NCC3CC3)O[C@H]1CO2	9
C[C@@H]1CN([C@H](C)CO)C(=O)c2cc(NS(=O)(=O)c3ccc(Cl)cc3)ccc2O[C@@H]1CN(C)Cc1ccc(Oc2ccccc2)cc1	15
C[C@@H]1CN([C@H](C)CO)C(=O)Cc2cc(N(C)C)ccc2O[C@@H]1CN(C)S(=O)(=O)c1ccc(Cl)cc1	8
CO[C@@H]1CN(C)C(=O)c2ccc(NS(C)(=O)=O)cc2OC[C@H](C)N(C(=O)CC2CC2)C[C@H]1C	-13
